Screening data from PubChem.
SARS PLpro yeast: inhibitors of SARS-CoV papain-like protease in yeast; S. cerevisiae expressing SARS-CoV PLpro, growth rescue; control for the full effect not named in the record; Potency, µM (titrated, usually from 32.9 µM), for the others: at the highest dose activity, positive = growth rescue; 0.19% of 330,000 active; note: 0% is about no effect; nearly all actives have a fitted effect of over 55% in size; growth read by luminescence after 48 h
Marburg entry inh: blocks Marburg virus binding to or entry into cells; Marburg virus pseudotyped entry inhibition, cell reporter; control for the full effect not named in the record; about a third of the inactives were read at about 46 µM; Potency, µM (highest dose often 37.8 µM), inactives show at the highest dose activity change, negative = inhibition, usual class: inhibitors; 1.8% of 300,000 active; AID 540276; active = well fitted inhibition curve with a large enough effect; inconclusive = small, poorly fitted or top-dose-only effect, or effect the other way; inactive = flat fitted curve, though single readings scatter; tested in HEK293 cells; about a fifth of its hits are not listed in these tables; note: % is set by controls: 0 for no effect and ±100 for the full control effect; luciferase read-out
NS1 inh: influenza NS1 inhibition | S. cerevisiae slowed by influenza A NS1, growth recovery by OD600 | Potency, µM (doses to about 46.1 µM), for the others: top-dose activity, positive = more growth | 0.4% of 270,000 active | AID 2326; note: actives are rising curves; nearly all actives have a fitted effect of over 50% in size
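A cell-based growth assay was used: compounds that relieve NS1-induced slow growth of budding yeast raise OD600. Assay medium was yeast nitrogen base with ammonium sulphate and -URA supplement, pH 6.0, with 2% galactose.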
2A StopGo: lowers the luciferase signal of an FMDV 2A StopGo reporter; human cells with a luciferase reporter of 2A StopGo recoding; control for the full effect not named in the record; Potency, µM (titrated, usually from 57.9 µM), without a hit: at the highest dose signal change, negative = less light; 1.2% of 410,000 active; active = well fitted falling curve with a large enough effect; inconclusive = small, poorly fitted or top-dose-only effect; inactive = no such curve, though single readings can be large or run the other way; tested in HEK293T cells; note: % is set by controls: 0 for no effect and ±100 for the full control effect; nearly all actives have a fitted effect of over 45% in size; luciferase light after 4 h
RE007 growth inh: less growth of the S. pombe RE007 Vpr strain; S. pombe RE007 Vpr strain, BacTiter-Glo ATP luminescence, 24 h; control for the full effect not named in the record; Potency, µM (doses to about 92.2 µM), for the others: top-dose activity change, negative = less growth; 0.21% of 360,000 active; AID 651644; active = well fitted falling curve with a large enough effect; inconclusive = small, poorly fitted or top-dose-only effect; inactive = no such curve, though single readings can be large or run the other way;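 note: % is set by controls: 0 for no effect and ±100 for the full control effect; nearly all actives have a fitted effect of over 50% in size; the assay follows cell death caused by Vpr and the record does not say whether a fall means rescue or toxicity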
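Fission yeast RE007 carrying one integrated HIV-1 vpr copy, seeded at OD 0.01 in PMG+AL medium with 23 nL pinned compound. Grown 24 h at 30 degrees; viability read by BacTiter-Glo luminescence after 5 min.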
LASV entry inh: blocks Lassa virus binding to or entry into cells; AID 540256; Lassa virus pseudotype entry inhibition, cell reporter; control for the full effect not named in the record; Potency, µM (highest dose often 37.9 µM), inactives show at the highest dose activity change, negative = inhibition, actives largely listed as inhibitors; 1.2% of 300,000 active; active means well fitted inhibition curve with a large enough effect; inconclusive means small, poorly fitted or top-dose-only effect, or effect the other way; inactive means flat fitted curve, though single readings scatter; tested in HEK293 cells; note: % is set by controls: 0 for no effect and ±100 for the full control effect; nearly all actives have a fitted effect of over 50% in size; luciferase read-out
Cruzain noTriton: cruzain (T. cruzi) inhibition without detergent. purified cruzain, Z-FR-AMC fluorescence, no detergent. Potency, µM, for inactives: max response, negative = inhibition, actives largely listed as inhibitors. P25779. 2.3% of 200,000 active; active = well fitted curve in the direction sought with a large enough effect; inconclusive = small, poorly fitted or top-dose-only effect, or another doubt; inactive = no such curve, though single readings can be large; an effect the other way counts as inactive or inconclusive;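 note: plate controls were enzyme without inhibitor for no effect and buffer without enzyme for full effect; nearly all actives have a fitted effect of over 40% in size; top concentration of the series not given in the record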
Target sequence (P25779 123-467 limits assumed): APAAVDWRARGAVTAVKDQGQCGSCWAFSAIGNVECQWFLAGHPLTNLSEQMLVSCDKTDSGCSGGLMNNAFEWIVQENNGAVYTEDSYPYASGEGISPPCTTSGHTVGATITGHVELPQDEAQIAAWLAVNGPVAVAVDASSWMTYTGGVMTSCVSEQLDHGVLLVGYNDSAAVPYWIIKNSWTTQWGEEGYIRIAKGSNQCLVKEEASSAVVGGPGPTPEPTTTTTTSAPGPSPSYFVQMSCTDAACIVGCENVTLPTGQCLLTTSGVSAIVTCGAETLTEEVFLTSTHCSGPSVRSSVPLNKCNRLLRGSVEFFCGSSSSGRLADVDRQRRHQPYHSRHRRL
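Detergent-free condition (0.00005% Triton X-100) in acetate buffer pH 5.5 with DTT. 1.5 nM enzyme and compound were pre-mixed 15 min, then 2 uM Z-FR-AMC substrate added; reaction progress from fluorescence change between first and third reads (60 s).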
Cruzain inh Det: cruzain (T. cruzi) inhibition with detergent. P25779. purified cruzain, Z-FR-AMC fluorescence, 0.01% Triton. Potency, µM, for the others: max response, negative = inhibition, usual class: inhibitors. 0.43% of 200,000 active. AID 1478; active = well fitted curve in the direction sought with a large enough effect; inconclusive = small, poorly fitted or top-dose-only effect, or another doubt; inactive = no such curve, though single readings can be large; an effect the other way counts as inactive or inconclusive;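 note: plate controls were neutral wells for no effect and buffer without enzyme for full effect; nearly all actives have a fitted effect of over 40% in size; top concentration of the series not given in the record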
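Compounds were screened in titration against cruzain (1.5 nM) with 0.01% Triton X-100 to counter colloidal aggregation. Activity was the AMC fluorescence increase over 60 s after adding 2 uM Z-FR-AMC at pH 5.5.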
* hit, by the source's call; ? = inconclusive; / = no result given; & = joins results of further samples; [ ] = another dose, or the depositor's remark. Unless noted, calls come from the whole dose curve; as a rule, active means well fitted rising curve with a large enough effect; inconclusive means small, poorly fitted or top-dose-only effect; inactive means no such curve, though single readings can be large or run the other way. Potency is the fitted concentration of half-maximal effect.

SMILES	SARS PLpro yeast	Marburg entry inh	NS1 inh	2A StopGo	RE007 growth inh	LASV entry inh	Cruzain noTriton	Cruzain inh Det
COc1ccc(C2SCC(=O)N2c2ccc(C)cc2)cc1 (stereo not given)	-5%	/	18%	0%	16%	/	/	/
CCOC(=O)c1c(C)sc(-c2c(-c3ccc4c(c3)OCCO4)[nH]c3c2c(=O)n(C)c(=O)n3C)c1O	/	-1%[46.1 µM]	/	0%	/	-2%[46.1 µM]	?	-2.6%
O=C(CCN1C(=O)NC2(CCCC2)C1=O)Nc1ccc(-c2nc3ccccc3s2)cc1	-18%	?	/	?	-13%	?	/	/
Cc1ccc(OCCNC(=O)c2ccccc2F)cc1	1%	32%	-5%	41%[activator]	-18%	2%	/	/
COc1ccc(NC(=O)c2cc(C3CC3)nc3c2c(C)nn3-c2ccc(C)cc2)cc1OC	/	/	/	-24%	/	21%[46.1 µM]	2%	0.9%
Cc1ccc(/C=N/NC(=O)CSc2nnc(-c3ccc(Cl)cc3)n2-c2ccc(Cl)cc2)o1	11%	?	21%	?	2%	?	6%	-2.7%
O=C(Nc1ccc2oc(-c3ccncc3)nc2c1)c1ccccc1F	1%	1%	-25%	-13%	-25%	7%	6%	-4.6%
CCCOc1ccc(C(=O)Nc2ccc(S(=O)(=O)N3CCN(C)CC3)cc2)cc1	?	8%	11%	?	-5%	?	/	/
COc1ccc(S(=O)(=O)NCC2CCCN(C(=O)CN3CCCCC3)C2)cc1 (stereo not given)	1%	/	1%	2%	-5%	/	/	/
O=C(CCN1C(=O)/C(=C/c2ccccc2Cl)SC1=S)N1CCOCC1	4%	?	?	-6%	1%	?	/	/
CCCC1=C(C(=O)OCC)C(c2ccc(NC(C)=O)cc2)NC(=O)N1 (stereo not given)	0%	?	1%	/	-3%	?	4%	2.7%
CCOC(=O)CNC(=O)CNC(=O)c1ccc(OCC(C)C)cc1	0%	?	-4%	-18%	19%	-14%	1%	-0.4%
Cc1ccc(OC(C)C(=O)Nc2ccc(S(=O)(=O)Nc3cc(C)on3)cc2)cc1 (stereo not given)	-8%	3%	5%	11%	5%	12%	-1%	3.6%
O=C(COc1cccc(C(F)(F)F)c1)Nc1nnc(C2CC2)s1	0%	-5%	/	-7%	-11%	?	/	/
c1ccc(-c2ccnc3ncnn23)nc1	1%	2%	1%	-12%	0%	-7%	/	/
Cc1cc(NC(=O)NC(=O)c2ccccc2NC(=O)CN(C)C)ccc1Oc1ncc(Br)cn1	/	?	/	0%	6%	?	/	/
CN(C)S(=O)(=O)c1ccc(Nc2ccc(-c3ccc4c(c3)OCCO4)nn2)cc1	-4%	22%	1%	/	-22%	3%	10%	-4.4%
COc1ccc(S(=O)(=O)N2CCOCC2)cc1OC	0%	35%	10%	0%	4%	-1%	-4%	-1.0%
COC(=O)c1cn(-c2ccccc2)c(=O)c2ccccc12	-1%	-12%[46.1 µM]	/	3%	4%	5%[46.1 µM]	/	/
COc1ccc(C(=O)CN2CCN(c3ccc(F)cc3)CC2)cc1OC	5%	0%	1%	-9%	-23%	25%	7%	-1.7%

The last two entries of the part above open the next one:
SMILES	SARS PLpro yeast	Marburg entry inh	NS1 inh	2A StopGo	RE007 growth inh	LASV entry inh	Cruzain noTriton	Cruzain inh Det
COC(=O)c1cn(-c2ccccc2)c(=O)c2ccccc12	-1%	-12%[46.1 µM]	/	3%	4%	5%[46.1 µM]	/	/
COc1ccc(C(=O)CN2CCN(c3ccc(F)cc3)CC2)cc1OC	5%	0%	1%	-9%	-23%	25%	7%	-1.7%
c1ccc2oc(-c3csc(NCC4CCCO4)n3)cc2c1 (stereo not given)	0%	?	/	-23%	?	?	/	/
COc1cc2c(cc1OC)CN(C(=O)/C=C/c1ccccc1[N+](=O)[O-])CC2	7%	?	-9%	6%	-2%	?	/	/
O=C(O)Cc1cccc2c(=O)cc(-c3ccccc3)oc12	/	/	-7%	5%	8%	/	7%	-6.3%
CN1CCC(=NNC(=O)C(=O)Nc2ccccc2F)CC1	-1%	7%[46.1 µM]	/	-7%	0%	-1%[46.1 µM]	/	/
COc1ccc(N2CCN(C(=O)CS(=O)(=O)c3cccc4nsnc34)CC2)cc1	/	/	/	-27%	/	25%[46.1 µM]	-4%	-1.4%
COc1ccc(/C(O)=C2/C(=O)C(=O)N(c3ncccn3)C2c2ccc(OC)cc2)cc1 (stereo not given)	10%	-8%	7%	-11%	2%	1%	-7%	-6.9%
Cc1cccc(NC(=O)Cn2nnc(-c3ccc(CN4CCCC4)cc3)n2)c1C	3%	?	?	7%	7%	-24%	?	-7.3%
Cc1nc2sccn2c(=O)c1S(=O)(=O)Nc1ccc(N2CCN(S(C)(=O)=O)CC2)cc1	-1%	?	?	?	-12%	-30%[46.1 µM]	-1%	-7.3%
CN1C(=O)C(C)(C)c2cc(S(=O)(=O)N3CCCC(C(=O)NCc4ccc(Cl)cc4)C3)ccc21 (stereo not given)	9%	/	22%	-1%	-10%	/	/	/
CN(C(=O)CSc1nc2ccccc2c(=O)n1-c1ccc(F)cc1F)C1CCS(=O)(=O)C1 (stereo not given)	-15%	6%	/	0%	1%	?	/	/
CCOc1ccc(-n2c(SCC(=O)NC3CCCCC3)nc3c([nH]c4ccccc43)c2=O)cc1	/	/	/	-18%	/	-4%[46.1 µM]	11%	-0.8%
Cc1cc(=O)oc2cc(OC(=O)c3nn(C(C)C)c(=O)c4ccccc34)ccc12	-3%	5%	1%	0%	2%	1%	-4%	36%[activator]
COc1ccc(-c2nnc3sc(C4CCCCC4)nn23)cc1OC	4%	-13%	-189%	?	-4%	?	-3%	-0.4%
NC(=O)c1ccc(NC(=O)CN2CCN(Cc3ccccc3)CC2)cc1	-3%	/	-3%	-15%	-24%	/	/	/
COc1ccc(C(=O)Nc2cc3cc(Cl)ccc3oc2=O)cc1OC	/	/	/	8%	/	-16%[46.1 µM]	2%	-0.9%
CC(=O)c1ccc(NC(=O)CSc2nnc3ccc(-c4ccc(Cl)cc4)nn23)cc1	/	/	/	-3%	/	14%[46.1 µM]	11%	0.1%
O=C(NCCc1nc2ccccc2[nH]1)c1ccc(F)cc1	1%	?	0%	7%	1%	-9%	1.3µM*	?
COCCn1c(SCC(=O)OC(C)C)nnc1-c1ccccc1	1%	-2%	0%	-17%	-1%	/	-3%	2.5%
O=C(Cn1c(C(=O)NCC2CCCO2)cc2sccc21)c1ccccc1 (stereo not given)	-2%	17%	-3%	-7%	7%	3%	-10%	-0.2%
CC(C)N1CCN(Cc2ccncc2)CC1CCO (stereo not given)	0%	/	5%	-11%	-3%	/	/	/
CCC(C)NC(=S)N1CCN(C(c2ccccc2)c2ccccc2)CC1 (stereo not given)	10%	?	-14%	-23%	1%	-30%	-3%	-1.7%
O=C(O)CCC(=O)c1ccc2ccc3cccc4ccc1c2c34	-5%	/	-13%&-84%	/	/	/	1%	-2.9%
COCCCNC(=S)NNC(=S)NCCCOC	-1%	?	-3%	-5%	-9%	7%	/	/
CC1(OC(=O)C2CCCC2)C(=O)C=C2C=C(c3ccc(C#N)cc3)OC=C2C1=O (stereo not given)	/	9%&9%[14.2 µM]	/	0%	-22%	/	-10%	-1.6%
O=C(CSc1ccc(-c2ccccc2)nn1)NC1CCCCC1	/	18%	-4%	-11%	-12%	?	/	/
O=C(CSc1nccn1Cc1ccc(Cl)cc1)NCc1ccccc1	/	/	/	-11%	/	-17%[46.1 µM]	8%	-0.7%
O=C(CC1C(=O)N(c2ccccc2)C(=S)N1c1ccccc1)c1ccccc1 (stereo not given)	-3%	0%	13%	-25%	-1%	/	1%	-4.7%
CCc1ccc(N(C(=O)c2snc(C(N)=O)c2N)C(C(=O)NCC2CCCO2)c2ccco2)cc1 (stereo not given)	-6%	-14%[46.1 µM]	3%	5%	1%	-15%	/	/
CCOc1cccc(CNC(=O)c2ccc(N3CCCC3)c(NC(=O)NCc3ccccc3)c2)c1	/	/	/	-28%	/	-14%[46.1 µM]	-8%	0.0%
N/C(CN1CCCC1=O)=N\O	9%	28%	6%	3%	-3%	-7%	-3%	4.2%
O=C(COc1ccccc1)Nc1cccc(-c2cn3cccnc3n2)c1	-1%	-25%&-25%	-4%	-16%&14%	-5%	?	18%	-17%
COC(=O)c1ccc(C#Cc2ccccc2)o1	-1%	?	-9%	21%	4%	10%[46.1 µM]	/	/
O=C(NCCO)c1cc2c([nH]c3ccccc32)c(-c2ccccc2)n1	-1%	-1%	8%	-4%	3%	-12%	/	/
O=C(Nc1ccc(F)cc1)c1cn(-c2ccccc2)nc1-c1ccncc1	-8%	?	-2%	1%	3%	?	-9%	-5.1%
Cc1ccc(NC(=O)[C@H](NC(=O)[C@@H]2Cc3ccccc3CN2)c2ccccc2)cc1	-5%	/	-3%	4%	2%	/	/	/
Cc1ccc(Nc2nnc(SCC(=O)Nc3cccnc3Cl)s2)cc1C	-13%	?	-7%	8%	-11%	?	-6%	-15%
CC(=O)N(c1ccc2oc(=O)sc2c1)S(=O)(=O)c1ccc(C)cc1	10%	-8%[46.1 µM]	21%	-2%	6%	-16%[46.1 µM]	/	/
COc1ccccc1N1CCN(C(=O)CSc2nc3ccccc3nc2Cc2ccc(C)cc2)CC1	/	/	/	?	/	10%[46.1 µM]	10%	-1.6%
O=C(c1ccccc1)c1nn(-c2ccc(Cl)cc2)cc1C(=O)c1cc2ccccc2oc1=O	-9%	27%	-8%	11%	4%	21%	25µM*	-4.6%
COc1ccc(N2CC(C(=O)OCC(=O)Nc3cc(C)on3)CC2=O)cc1 (stereo not given)	5%	4%[46.1 µM]	-2%	14%	-1%	14%	/	/
CN(CC(=O)Nc1ccccc1C(F)(F)F)C(=O)c1cc(-c2cccs2)nn1-c1ccccc1	-2%	2%	/	-26%	8%	-1%	/	/
O=c1[nH]c(CN2CCOCC2)nc2scc(-c3ccccc3)c12	-5%	?	/	-4%	-7%	4%	/	/
CCNC(=O)NC(=O)COC(=O)c1cccc(NS(=O)(=O)/C=C/c2ccccc2)c1	3%	-8%	3%	20%	3%	-16%	-4%	-4.2%
